Sa RN4220 lethal: S. aureus RN4220 growth inhibition; OD600, 16 h; inhibition, % (no concentration beside the values); 330,000 tested, 0.33% active;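 active = z-score of -3 or lower and OD600 up to 0.18 on both plates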;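 note: plate controls were untreated cells for no effect and reference antibiotic for full effect; stock transfer was 100 nL into about 80 µL; one replicate is shown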
PrP UTR inh: inhibition of PrP 5' UTR reporter expression. inhibition, % (concentration not given with the values). AID 488862. 340,000 tested, 0.35% active. cell-based PrP 5' UTR mRNA reporter, plate reader;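 active = every replicate at 50% or more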;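 note: 0 = median of the neutral control wells; tested in H4 reporter cells; numbers are from one replicate; inactives centre near -14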
Mtb hypoxia rep: Mtb hypoxia fluorescent reporter inhibition; M. tuberculosis hypoxia-regulated fluorescent reporter, fluorescence; fluorescence inhibition, % (test concentration not listed); 300,000 tested, 0.1% active; AID 1159583;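 active = 35 to 45% if threefold the growth effect, above 45% if 1.5-fold the growth effect; inactive = the rest, general growth blockers included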;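 note: wells of about 50 µL received 100 nL stock; 0% = vehicle wells and 100% = reference inhibitor wells; whole bacteria with a GFP reporter of the hypoxia response; strong numbers were not always called active; many hits fall short of the cut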
Autofluor counter: flagged as autofluorescent in microsphere protease counterscreen; compound autofluorescence counterscreen, microsphere flow cytometry; active compounds read high; fluorescence intensity (concentration not given with the values); 360,000 tested, 3.1% active; AID 624483;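 active = at least 3 SD above the mean of all compounds, about 16000 in these data; inconclusive = too few beads counted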;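 note: 100 nL of 1 mM stock went into each well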
ugtP null kill: compounds lethal to S. aureus RN4220 ugtP deletion mutant; OD600 growth, 16 h; some inactives read as strong as hits; growth inhibition, % (no concentration beside the values); 330,000 tested, 0.54% active; AID 1259309;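 active = z-score under -3 and OD600 up to 0.15 on both plates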;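 note: plate controls were untreated wells for no effect and antibiotic for full effect; wells of about 80 µL received 100 nL stock; the first replicate is given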
BJeLR lethal: BJeLR cell viability loss; BJeLR (HRASV12) viability, CellTiter-Glo ATP luminescence, 48 h; reference of the scale not given here; inhibition, % (concentration not given with the values); 300,000 tested, 0.17% active;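 active = replicate mean above 50%; inconclusive = above 50% but judged a plate artefact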;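 note: 50 nL library stock added to about 25 µL; numbers are from one replicate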
Mtb hypoxia rep growth: further read-out of Mtb hypoxia rep, marked with its call; growth inhibition, %; measured here: M. tuberculosis growth (absorbance);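 0% = vehicle and 100% = reference antibiotic; read after six days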
An asterisk follows results filed as active; ? = inconclusive; nt = no result given.

SMILES | Sa RN4220 lethal | PrP UTR inh | Mtb hypoxia rep | Mtb hypoxia rep growth | Autofluor counter | ugtP null kill | BJeLR lethal
COc1ccc(N(CC(=O)Nc2cccc(SC)c2)S(C)(=O)=O)cc1 | -7.1 | -38 | -3 | 4 | nt | -5 | 2
CCc1ccccc1NC(=O)CCN1C(=O)C2CC=CCC2C1=O (stereo not drawn) | 3.3 | -22 | 7 | 0 | 5648 | -2 | -3
Cc1ccc(C)n1-c1ccc(C(=O)NN)cc1 | nt | -15 | nt | nt | 2461 | nt | 8
COc1ccc(C(=O)N/C(=C\c2ccco2)C(=O)OCc2ccco2)cc1 | 1.3 | -18 | 18 | 12 | 4206 | 4 | -5
Cc1cc(C)n(CCCNC(=O)C(C)(C)Oc2ccc(Cl)cc2)n1 | 3.8 | -14 | 9 | -6 | 6867 | 2 | nt
CC1(C)Cc2c(C#N)c(SCC(=O)O)nc(N3CCOCC3)c2CO1 | 3.6 | -23 | -6 | 1 | 5578 | 1 | -14
Cc1ccn2c(NCc3ccccc3)c(-c3cccs3)nc2c1 | 2.9 | -24 | 9 | -1 | 4662 | -6 | -3
OC(COCc1ccc(Cl)cc1)CN1CCCCC1 (stereo not drawn) | 4.7 | -4 | 13 | -5 | 4467 | 15 | -3
O=C(c1cc(-c2ccc(Cl)cc2)nc2ccccc12)N1CCC1 | 0.7 | -4 | 5 | 9 | ? | 1 | -3
CC1(C)COC2(OC1)C(=O)N(CN1CCOCC1)c1ccccc12 | -1.4 | -22 | -6 | 9 | 4294 | -2 | -2
CCCNC(=O)CN1CCC(c2nc3ccccc3[nH]2)CC1 | 3.2 | -15 | 1 | 5 | 5229 | 4 | 14
CCOc1ccc(C(=O)N2CCN(Cc3ccccc3)CC2)cc1OCC | 4.1 | 5 | 12 | 5 | 3197 | 5 | -9
Cc1ccc(S(=O)(=O)/N=C(/Nc2cccc(C(=O)O)c2)c2ccccc2)cc1 | nt | -4 | nt | nt | 2957 | nt | -5
COCCNC(=O)c1ccc(CS(=O)(=O)c2ccccc2C)o1 | 8.6 | 3 | 8 | 6 | 3145 | 7 | -1
Cc1cc(C(=O)CCC(=O)N2CCN(c3ccccc3F)CC2)c(C)s1 | -0.3 | -3 | -8 | 9 | 4214 | 4 | 2
O=C(O)c1ccc(-n2cccn2)c([N+](=O)[O-])c1 | 0.0 | 0 | -3 | 7 | 2041 | 12 | 0
N#CCOC(=O)c1cc(S(=O)(=O)N2CCCCC2)ccc1N1CCOCC1 | 5.5 | -9 | 9 | 2 | nt | 8 | nt
Cc1ccc(S(=O)(=O)Nc2cccc3ncccc23)cc1 | 6.3 | -1 | 9 | -1 | 4452 | 6 | 8
O=C(N/N=C/c1ccccc1F)c1csc2c1CCCC2 | nt | -49 | nt | nt | 4318 | nt | 9
CC1(C)N=C2C(=[N+]1[O-])CCC/C2=N\O | nt | -39 | nt | nt | 10438 | nt | -15
Cc1cccc(N2CCN(C(=O)c3cc4c(=O)[nH]c5ccccc5c4n3C)CC2)c1C | 0.9 | -42 | -81 | -25 | ? | -8 | -16
Cc1ccc(-n2nc3c([n+]2[O-])CCc2c-3no[n+]2[O-])cc1 | 5.0 | -45 | 4 | 17 | 21683* | -6 | 6
COc1cc(OC)c(C2SCCCS2)cc1OC | 5.2 | -2 | 3 | 4 | 6623 | 10 | 0
COCCNC(=O)c1ccccc1NC(=O)c1ccccc1N(C)S(C)(=O)=O | 4.8 | -53 | -5 | -7 | 2441 | 9 | -12
O=C(CN1CCOCC1)Nc1ccc(Cl)cc1 | 4.9 | -21 | 0 | -3 | 3809 | 14 | -5

(list continues)
SMILES | Sa RN4220 lethal | PrP UTR inh | Mtb hypoxia rep | Mtb hypoxia rep growth | Autofluor counter | ugtP null kill | BJeLR lethal
O=C(NCc1ccncc1)C(=O)NCC1OCCN1S(=O)(=O)c1ccc(Cl)cc1 (stereo not drawn) | 2.3 | -14 | 8 | -2 | 4847 | 1 | -2
CCCCC(=O)Nc1ccc(C(=O)Nc2cccnc2)cc1 | 3.1 | -19 | 4 | 2 | 16977* | 4 | 1
CC(NCc1cccs1)c1ccccc1 (stereo not drawn) | 2.8 | -7 | 10 | 3 | 2567 | 1 | -1
O=C(O)COc1ccc2occ(C(=O)c3ccccc3)c2c1 | 1.3 | -5 | nt | nt | 4646 | 9 | 3
COc1ccc(CNc2ccc(N3CCOCC3)cc2)cc1 | 1.7 | -33 | 16 | 6 | 4118 | 6 | -6
CCN(CC)CCCN=C1NC(c2ccccc2)C(C(=O)OC)=C(C)N1CC (stereo not drawn) | -0.2 | nt | 1 | 14 | nt | -6 | nt
Nc1ncnc(NCc2ccccc2)c1[N+](=O)[O-] | 4.9 | -1 | 8 | 5 | 2054 | -2 | 2
COc1ccc(N2CCN(C(=O)c3ccc(CS(=O)Cc4ccc(C)cc4)o3)CC2)cc1 (stereo not drawn) | -6.6 | -1 | 3 | 8 | 5419 | 96* | -8
CC(C)CNC(=O)NC(=O)COc1ccc(C=O)cc1 | -4.2 | -26 | nt | nt | 4143 | 0 | 3
CCOC(=O)c1c(-c2cccs2)csc1NC(=O)CN1CC(C)OC(C)C1 (stereo not drawn) | 6.4 | -14 | 16 | 11 | 2987 | 0 | -8
CCOC(=O)c1c(-c2ccc(C)cc2)csc1/N=C(\C)C1=C(O)c2ccccc2C1=O | nt | -26 | nt | nt | 4155 | nt | 2
Cc1nnc(SCC(=O)NC2CC2)n1-c1ccccc1 | 6.0 | -6 | -2 | -8 | 4055 | 13 | 0
Cc1cc(Br)ccc1OCCCCN1CCCCC1 | -2.3 | -17 | nt | nt | 2245 | -4 | 5
CCn1c(SCC(=O)N/N=C/C=C\c2ccccc2[N+](=O)[O-])nnc1-c1ccccc1 | nt | 7 | nt | nt | 16357* | nt | 10
O=C(O)CN1C(=O)C2C3CC(C2C1=O)C1C(c2ccc(Cl)cc2)c2sc(=O)[nH]c2SC31 (stereo not drawn) | 6.3 | -22 | 12 | 13 | 2583 | 9 | -1
COc1ccc(CN2CCN(Cc3ccccc3F)CC2)c(OC)c1 | 2.2 | -25 | 11 | 8 | 3777 | 7 | 2
COc1ccccc1C(=O)N1CCN(Cc2cccnc2)CC1 | 2.3 | -7 | 7 | 10 | 3652 | 15 | -4
CCOc1cc(N2CCOCC2)c(OCC)cc1NC(=O)CSc1ncccc1C(=O)O | 4.9 | -19 | 4 | 8 | 3809 | 6 | nt
C#CCCOC(=O)Nc1ccccc1 | 2.6 | -35 | 11 | 12 | 4636 | 1 | -11
CC(NS(=O)(=O)c1ccc(Cl)c(Cl)c1)C(=O)OCC(=O)Nc1ccc2c(c1)OCO2 (stereo not drawn) | -10 | -15 | 6 | -5 | 4720 | 2 | -3
O=C(CCNS(=O)(=O)c1ccccc1F)N1CCN(S(=O)(=O)c2cccc(F)c2)CC1 | 3.3 | 13 | 2 | 3 | nt | -1 | -3
O=C(NN=Cc1ccccc1C(=O)O)c1ccncc1 | 29 | nt | nt | nt | nt | -5 | nt
CCOC(=O)c1c(C)[nH]c(C(=O)OCC(=O)NCc2ccc(C)cc2)c1C | 7.5 | -25 | 2 | -1 | 4439 | 8 | nt
Cc1ccc(S(=O)(=O)N2CCCCC2)cc1NC(=O)CCN1C(=O)C2CC=CCC2C1=O (stereo not drawn) | 5.9 | -7 | 6 | 2 | 9488 | 2 | nt
CC(C)CSc1n[nH]c(N)n1 | 1.5 | -17 | 11 | 6 | 2361 | 9 | -4

Copied from the list.
Result for CC(C)CNC(=O)NC(=O)COc1ccc(C=O)cc1 in BJeLR lethal: 3
Result for COc1ccc(CNc2ccc(N3CCOCC3)cc2)cc1 in Mtb hypoxia rep growth: 6
Result for CCOc1cc(N2CCOCC2)c(OCC)cc1NC(=O)CSc1ncccc1C(=O)O in Mtb hypoxia rep growth: 8
Result for COc1ccccc1C(=O)N1CCN(Cc2cccnc2)CC1 in PrP UTR inh: -7

Later entries
SMILES | Sa RN4220 lethal | PrP UTR inh | Mtb hypoxia rep | Mtb hypoxia rep growth | Autofluor counter | ugtP null kill | BJeLR lethal
COCc1ccc(CN2CCC(Oc3ccc(C(=O)NCc4ccccn4)cc3)CC2)o1 | 3.5 | -4 | 5 | -5 | 5577 | 0 | 6
Cc1csc(CN(C)C(=O)C2CCC(=O)N(Cc3ccc(Cl)cc3)C2)n1 (stereo not drawn) | 3.0 | -4 | 8 | 9 | 4776 | 4 | 1
COc1ccc(-c2nc(SCc3ccccc3)n(C(=O)c3ccco3)n2)cc1 | 0.3 | -30 | 4 | 9 | 12643 | 5 | 6
Cn1cccc1/C=C1\CC(C(C)(C)C)C/C(=C\c2cccn2C)C1=O (stereo not drawn) | 0.1 | -25 | 5 | 10 | 7066 | -3 | -15
COc1ccc(CCNC(=O)CN2C(=O)COc3ccc(S(=O)(=O)N4CCOCC4)cc32)c(OC)c1 | 2.3 | 3 | 15 | 5 | 5354 | 4 | -17
COc1ccc(NC2CCCN(C(=O)CCN3CCCC3=O)C2)cc1 (stereo not drawn) | -0.6 | -9 | 0 | 1 | 6107 | -2 | -2
CCOC(=O)Cc1csc(NC(=O)COc2ccc3c(c2)CCC3)n1 | -1.0 | -21 | 6 | 1 | 5608 | 8 | 3
COc1cc2oc(=O)c3c(c2cc1OCC(=O)c1c(C)n(C)c2ccccc12)CCCC3 | 4.7 | -9 | -5 | -1 | 2240 | -2 | 11
CC(=O)c1sc(C(=O)O)c(-c2ccco2)c1-c1ccco1 | 2.5 | -14 | 11 | -1 | 3905 | 2 | -9
CN(C)c1ccc(CNn2cnnc2SCc2ccc(F)cc2)cc1 | 2.8 | 8 | 5 | 7 | 10764 | -7 | -2
C[C@H](CO)N1C[C@H](C)[C@@H](CN(C)S(=O)(=O)c2cn(C)cn2)Oc2ccc(NS(=O)(=O)c3ccccc3)cc2C1=O | 4.3 | -5 | 0 | 1 | 4078 | 3 | nt
CCOCCn1c(=O)c2c(nc3n2CCCN3Cc2ccccc2)n(C)c1=O | 6.4 | -14 | 1 | -2 | 3630 | 1 | 9

An excerpt from above in order of SMILES length, smallest number first:
SMILES | Sa RN4220 lethal | PrP UTR inh | Mtb hypoxia rep | Mtb hypoxia rep growth | Autofluor counter | ugtP null kill | BJeLR lethal
CC(=O)c1sc(C(=O)O)c(-c2ccco2)c1-c1ccco1 | 2.5 | -14 | 11 | -1 | 3905 | 2 | -9
CCOC(=O)Cc1csc(NC(=O)COc2ccc3c(c2)CCC3)n1 | -1.0 | -21 | 6 | 1 | 5608 | 8 | 3
Cn1cccc1/C=C1\CC(C(C)(C)C)C/C(=C\c2cccn2C)C1=O (stereo not drawn) | 0.1 | -25 | 5 | 10 | 7066 | -3 | -15
COc1cc2oc(=O)c3c(c2cc1OCC(=O)c1c(C)n(C)c2ccccc12)CCCC3 | 4.7 | -9 | -5 | -1 | 2240 | -2 | 11
C[C@H](CO)N1C[C@H](C)[C@@H](CN(C)S(=O)(=O)c2cn(C)cn2)Oc2ccc(NS(=O)(=O)c3ccccc3)cc2C1=O | 4.3 | -5 | 0 | 1 | 4078 | 3 | nt

Screening data (PubChem)
